KCNQ2 inh: KCNQ2 potassium channel inhibitors, primary screen, cell-based, CHO-K1, FluxOR thallium flux, B-score (AID 2156); O88943; 310,000 compounds, 1.1% hits; 20 min; active compounds read low; only compounds with negative scores are shown here; some inactives read as strong as hits; B-score at 10 µM;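 active means fluorescence ratio B-score at most minus 3 library SDs, with starting brightness B-score within 2 library SDs, cut at about -5.5 in these data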
Target sequence (O88943 whole entry, looked up): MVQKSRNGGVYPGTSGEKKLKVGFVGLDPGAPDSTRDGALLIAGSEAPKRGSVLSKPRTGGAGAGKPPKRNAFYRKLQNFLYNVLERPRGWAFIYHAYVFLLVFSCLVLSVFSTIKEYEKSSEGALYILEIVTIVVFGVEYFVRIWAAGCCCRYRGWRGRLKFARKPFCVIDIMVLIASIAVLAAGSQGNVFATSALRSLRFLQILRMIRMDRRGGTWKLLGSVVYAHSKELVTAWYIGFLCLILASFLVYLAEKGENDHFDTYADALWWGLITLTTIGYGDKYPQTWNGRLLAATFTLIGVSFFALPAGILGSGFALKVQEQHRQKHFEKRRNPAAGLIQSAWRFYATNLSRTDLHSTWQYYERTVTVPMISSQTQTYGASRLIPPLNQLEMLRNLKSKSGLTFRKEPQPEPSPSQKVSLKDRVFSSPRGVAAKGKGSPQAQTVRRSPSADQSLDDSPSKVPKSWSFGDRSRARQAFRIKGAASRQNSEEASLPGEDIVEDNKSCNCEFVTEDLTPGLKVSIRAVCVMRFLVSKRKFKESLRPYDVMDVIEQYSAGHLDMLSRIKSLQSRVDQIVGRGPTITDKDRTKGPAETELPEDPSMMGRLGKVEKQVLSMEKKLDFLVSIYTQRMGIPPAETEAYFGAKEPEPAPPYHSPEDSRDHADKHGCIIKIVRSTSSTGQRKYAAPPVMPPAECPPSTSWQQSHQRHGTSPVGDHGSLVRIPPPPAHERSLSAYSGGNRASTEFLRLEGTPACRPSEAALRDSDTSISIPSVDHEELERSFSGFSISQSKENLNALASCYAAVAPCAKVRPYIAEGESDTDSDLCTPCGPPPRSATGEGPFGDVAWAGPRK
KCNQ2 inh baseline: also measured in KCNQ2 inh; calls as there; B-score; measured here: initial fluorescence intensity artifact check;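 brightness before thallium and not channel activity; 0 = typical well and far values either way flag optical interference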
* hit, by the source's call; i = inactive. An excerpt; rates above refer to the full screens.

The line under a structure holds: KCNQ2 inh baseline	KCNQ2 inh
> CCC(=O)Oc1ccc(-c2cnc3ccccc3n2)cc1
→ -0.68	i
> COC(=O)c1ccc(N2NC(=O)/C(=C/c3ccc(OC)c(OC)c3)C2=O)cc1
→ -0.29	i
> O=C(NC1C=CS(=O)(=O)C1)c1sc2ccccc2c1Cl (configuration not stated)
→ -0.27	i
> COc1nsnc1NS(=O)(=O)c1ccc(NC(=S)NC(=O)c2ccncc2)cc1
→ -0.63	i
> Cc1ccccc1OCC(=O)N1CCC2(CC1)CC(=O)c1ccccc1O2
→ 0.04	i
> O=C(/C=C/c1ccc(F)cc1)Nc1cc(S(=O)(=O)N2CCOCC2)ccc1N1CCCC1
→ -1.13	i
> O=C(O)c1ccccc1C(=O)c1ccc(N2CCCC2)c([N+](=O)[O-])c1
→ -0.62	i
> CC(C)COc1ncnc2c1sc1nc3c(cc12)COC(C)(C)C3
→ 3.09	i
> CCC1NC(C(=O)O)Cc2c1[nH]c1ccccc21 (configuration not stated)
→ 0.76	i
> Cc1cc(C(=O)CSc2nc3ccccc3n2C)c(C)n1C
→ -0.61	i
> CCOC(=O)c1cc2sc(C)cc2n1CC(=O)Nc1ccc2c(c1)OCCO2
→ -0.95	i
> Cc1ccc(C2C3=C(NCCN=C3c3ccccc3)C(=O)N2c2ccccc2)cc1 (configuration not stated)
→ 0.37	i
> O=C(COC(=O)c1ccc(S(=O)(=O)Nc2ccccc2)cc1)NCc1ccco1
→ -0.64	i
> CCOC(=O)c1cnc(SC2CCc3ccccc3C2=O)nc1N (configuration not stated)
→ 0.66	i
> COC(=O)c1ccc(CSc2nc3ccccc3c(=O)n2Cc2ccco2)o1
→ 0.01	i
> Cc1ccc(NC(=O)Cn2c3ccc(F)cc3c3nc4n(c(=O)c32)CCS4)cc1F
→ -0.75	i
> CCCn1c(=O)c(C(=O)NCc2ccc(OC)c(OC)c2)c(O)c2ccccc21
→ 0.47	i
> COc1cc(NC(=O)COc2ccccc2[N+](=O)[O-])ccc1NC(=O)c1ccco1
→ 0.78	i
> COc1ccccc1/C=N\Nc1cc(C)nc(-n2nc(C)cc2C)n1
→ -3.79	i
> O=C(NCc1ccccc1)c1cccc(COc2ccccc2Cl)c1
→ -1.16*	-11.5*
> O=C(Nc1ccc(Cl)c(S(=O)(=O)N2CCOCC2)c1)c1ccc(OCC2CCCO2)cc1 (configuration not stated)
→ 0.18	i
> CC1Cc2nc(SCC(N)=O)n(Cc3ccccc3)c(=O)c2S1 (configuration not stated)
→ -0.79	i
> CCN(CC)S(=O)(=O)c1ccc(NCc2ccccc2)nc1
→ 0.11	i
> Clc1ccccc1OCc1nc(-c2ccc(Br)o2)no1
→ -0.05	i
> CCOC(=O)c1cnc(-n2nc(C)cc2C)nc1Nc1ccc(OC)cc1
→ 4.22	i
> Cc1ccccc1-c1nc(CN(Cc2c(C)nn(C)c2C)C2CC2)c(C)o1
→ -0.46	i
> O=C(c1ccc(Cn2cnnn2)cc1)N1CCCC(Nc2ccc(F)cc2)C1 (configuration not stated)
→ -1.37	i
> Cc1ccc2cc(/C=N/Nc3ccc(C(=O)O)cc3)c(Cl)nc2c1
→ -0.13	i
> CCOC(=O)c1cn(C2CC2)c2c(F)c(NCCCN(C)C)c(F)cc2c1=O
→ -0.02	i
> CCS(=O)(=O)n1nc(-c2ccccc2)nc1SC
→ -1.11	i

Overlap with the part before: 2 compounds, then new ones.
The line under a structure holds: KCNQ2 inh baseline	KCNQ2 inh
> CCOC(=O)c1cn(C2CC2)c2c(F)c(NCCCN(C)C)c(F)cc2c1=O
→ -0.02	i
> CCS(=O)(=O)n1nc(-c2ccccc2)nc1SC
→ -1.11	i
> O=C(Nc1ccccc1-c1ccccc1)c1cccc(C(F)(F)F)c1
→ -0.69	i
> COc1ccc(CCN(C(=O)c2cccc(F)c2)C2CC(=O)N(c3ccc(OC)cc3)C2=O)cc1 (configuration not stated)
→ 1.15	i
> CCOc1ccc(C2/C(=C(/O)c3ccc4c(c3)CC(C)O4)C(=O)C(=O)N2CCCn2ccnc2)cc1 (configuration not stated)
→ -0.78	i
> CC(C)(C)NC(=O)COc1ccccc1C#N
→ 1.22	i
> COc1cc(OC)cc(C(=O)N2CCN(Cc3ccccc3C(F)(F)F)CC2)c1
→ 0.47	i
> Cc1cc(C)cc(OCC(=O)N2CCc3ccccc3C2)c1
→ 0.62	i
> CN(C)/C=N/c1cc(=O)[nH]c(=O)n1CC1CC1
→ -0.79	i
> CC(=O)c1cn(CC(=O)Nc2c(C)cccc2C)c2ccccc12
→ -0.71	i
> COc1cc(C(C)=O)ccc1Oc1cc(NN2CCCCC2)c([N+](=O)[O-])cc1[N+](=O)[O-]
→ -0.01	i
> CC(C)C(=O)n1nc(-c2cccnc2)nc1NCc1ccc(F)cc1
→ 2.13	i
> O=C1CC(c2ccc(F)cc2)CC(O)=C1C=NCCN1CCN(C(=O)Nc2ccccc2)CC1 (configuration not stated)
→ 0.02	i
> Cc1nn(Cc2c(Cl)cccc2Cl)c(C)c1C(=O)NCc1ccc(C)n1C
→ -0.02	i
> Cn1cc(Br)c(C(=O)N/N=C/c2cc3ccccc3nc2Cl)n1
→ 0.04	i
> COc1ccccc1N1CCN(Cc2ccco2)CC1
→ 3.06	i
> CCCOC(=O)CCCCCCCCC(O)CN1CCCCC1 (configuration not stated)
→ -2.29	i
> Cc1ccc(N(C)C(=O)c2cnn(-c3ccccc3)c2C)c(C)c1
→ -0.77	i
> Cc1ccc(Cl)cc1N1CCN(C(=O)CCCn2c(=O)c3cccn3c3cccnc32)CC1
→ 0.14	i
> CCOC(=O)C1(Cc2ccccc2C(F)(F)F)CCN(C(C)COC)CC1 (configuration not stated)
→ 2.14	i
> O=c1[nH]c2ccc(NC(=S)NCc3ccccc3)cc2[nH]1
→ 0.06	i
> O=C(c1ccccc1[N+](=O)[O-])N1CCc2ccccc2C1
→ 1.3	i
> CCOc1cc(/C=C2\NC(=S)N(C)C2=O)ccc1OCc1ccc(C(=O)O)cc1
→ 2.42	i
> O=C(CCS(=O)(=O)c1ccc(Cl)cc1)Nc1nnc(-c2ccco2)o1
→ -0.55	i
> Cc1cc(=O)oc(C)c1C(=O)OCC(=O)c1ccc(Cl)cc1
→ 0.07	i
> COc1ccc(N2CCOCC2)c(NC(=O)c2cccc3ccccc23)c1
→ -1.13	i
> COc1ccc(N2C(=O)C3CC(C)=C(C)CC3C2=O)c(OC)c1 (configuration not stated)
→ 0.99	i
> CC(=O)Nc1ccc(S(=O)(=O)Nc2ccc(-c3ccc4nnc(C)n4n3)cc2)cc1
→ -1	i
> Cc1ccc2c(c1)C(=O)CC1(CCCCCC1)O2
→ 0.09	i
> Cc1ccc2c(c1)nc(NCCO)n2C
→ -0.03	i
> Cc1cc(=O)oc(C)c1C(=O)Nc1ccc(F)cc1
→ -0.38	i
> CCn1cnc2c1c(=O)n(CC(=O)Nc1cc(C)on1)c(=O)n2Cc1ccccc1
→ 0.66	i
> Cc1[nH]ncc1N=Cc1ccc([N+](=O)[O-])cc1
→ -0.68	i
> O=C(CCC1CCCCC1)NCc1cccnc1
→ 2.19	i
> CCOC(=O)c1nn(-c2ccc(Cl)cc2)c2nnc(Cc3ccc(C)cc3)c(=O)n12
→ 0.33	i
> Cc1ccccc1NC(=O)C1C2CCCCC21 (configuration not stated)
→ 0.8	i
> CCC(C)[C@H](NC(=O)[C@@H]1CSC2c3ccccc3C(=O)N21)C(=O)NC1CCCC1 (some centres not stated)
→ -1.51	i
> COc1ccc(CCN=C(N)NS(=O)(=O)c2ccc(C)cc2)cc1OC
→ 2.78	i
> Cn1cnnc1SCC(=O)Nc1ccc(F)cc1
→ 3	i
> CCN(CC(=O)NCc1ccc(Cl)cc1)C(=O)c1ccc(C#N)cc1
→ 0.01	i
> CC1CCN(Cc2nnc(-c3cccc(Br)c3)o2)CC1
→ -1.82	i
> CCCn1c(CN2CCCCC2C)nc2c1c(=O)n(C)c(=O)n2C (configuration not stated)
→ 0.81	i
> CC(NC(=O)c1cccs1)C(S)c1ccccc1 (configuration not stated)
→ 2.5*	-10.5*
> O=S(=O)(NCc1csc(-c2cccs2)n1)c1ccc(Cl)cc1
→ -1.59	i
> COc1ccccc1NC(=O)COC(=O)c1ccccn1
→ 0.21	i
> O=C(COc1cccc(F)c1)N[C@@H](Cc1ccccc1)c1nc2ccccc2[nH]1
→ 0.18	i
> CCC(CC)C(=O)N1CCN(Cc2ccc3c(c2)OCO3)CC1
→ -0.54	i
> CCCCc1nc(NCCNC(=O)c2ccccc2)c(C#N)c2c1CSC(C)(C)C2
→ -0.63	i
> CC(C)c1nc2ccc(NC(=O)C34CC5CC(CC(C5)C3)C4)cc2[nH]1
→ -0.33	i
> O=C(CS(=O)(=O)c1c[nH]c2ccccc12)Nc1ccc(F)cc1
→ -0.64	i
> COc1ccc(/C=C/C(=O)N(Cc2ccccc2)c2ccccn2)cc1OC
→ 0.03*	-7.71*
> Cc1nn(Cc2ccccc2)c(C)c1N
→ 1.54	i
> COc1cc2c(cc1OC)CN(C(=O)c1sccc1C)CC2
→ 1.34	i
> CCOc1ccc(C(=O)NC(=S)Nc2ccc(N3CCC(C)CC3)cc2)cc1[N+](=O)[O-]
→ -1.72	i
> COc1cc(NC(=O)Cn2cnc3sc(C)c(S(=O)(=O)N4CCN(C)CC4)c3c2=O)cc(OC)c1OC
→ -3.38	i
> CC(C)(C)OC(=O)N1CCN(C(=O)c2[nH]cnc2C(=O)N[C@@H](Cc2ccccc2)C(=O)OCc2ccccc2)CC1
→ -0.16	i
> COc1ccc2c(c1)[nH]c1c(=O)n(N)cnc12
→ 1.97	i
> CC1(C)CC(=O)c2cc3c(N)c(C(=O)NCc4ccccc4)sc3nc2C1
→ -0.4	i
> COc1ccc(NC(=O)CSc2nnc(-c3cccs3)n2-c2ccccc2)cc1
→ -0.18	i
> O=C(C1=C[C@@H](c2coc3ccccc3c2=O)C[C@@H](OCCCCO)O1)N1CCOCC1
→ 2.42	i
> CCOC(=O)c1ccc(S(=O)(=O)Nc2ccc(N3CCOCC3)cc2)cc1
→ -1.26	i
> COc1ccc(CN(C(=O)c2cccs2)c2ccccc2)cc1
→ -0.29	i

2 consecutive records out of the list so far, for reference:
The line under a structure holds: KCNQ2 inh baseline	KCNQ2 inh
> CCOC(=O)c1ccc(S(=O)(=O)Nc2ccc(N3CCOCC3)cc2)cc1
→ -1.26	i
> COc1ccc(CN(C(=O)c2cccs2)c2ccccc2)cc1
→ -0.29	i

Pulled one by one from the list above (2):
The line under a structure holds: KCNQ2 inh baseline	KCNQ2 inh
> Cn1cnnc1SCC(=O)Nc1ccc(F)cc1
→ 3	i
> Cc1ccc(NC(=O)Cn2c3ccc(F)cc3c3nc4n(c(=O)c32)CCS4)cc1F
→ -0.75	i

Additional structures follow.
The line under a structure holds: KCNQ2 inh baseline	KCNQ2 inh
> Cc1cc2ncn(C(=O)c3ccc(F)cc3)c2cc1C
→ 0.26	i
> CCN1CCN(c2ccc(S(=O)(=O)N3CCCCC3)cc2NC(=O)Cc2ccccc2F)CC1
→ 1.82	i
> CC1CCCCN1CCNC(=O)CC1Oc2ccccc2NC1=O (configuration not stated)
→ -0.59	i
> COc1ccccc1/C=C/C(=O)NCC(=O)N/N=C/c1ccccc1
→ 0.92	i
> Cn1c(NC(=O)Cc2cccs2)cc(=O)n(C)c1=O
→ -0.37	i
> COC(=O)NCc1cccc(CNC(=O)OC)c1
→ -0.85	i
> COc1cccc(NC(=O)C2CCCN2C(=O)NC2CCCCC2)c1 (configuration not stated)
→ -1.15	i
> COC(=O)Cn1ccc2cc(S(=O)(=O)N3CCCCC3)ccc21
→ -1.7	i
> O=C(CSc1nc2ccc([N+](=O)[O-])cc2s1)NCC1CCCO1 (configuration not stated)
→ -0.95	i
> O=C(OCCOCCN=C1NS(=O)(=O)c2ccccc21)C1CC(=O)N(c2ccccc2)C1 (configuration not stated)
→ 0.85	i
> CCc1ccc2[nH]c3nc(N/N=C/c4cccc(O)c4)nnc3c2c1
→ 0.04	i
> COc1cc(-c2nc3ccccn3c2NCc2ccccc2)ccc1SC1CCCCC1
→ -0.61*	-8.7*
> CCOC(=O)c1ccc(NC(=O)c2cc(OC)c(OC)c(OC)c2Br)cc1
→ 0.11	i
> CCn1cc(C(=O)NCCCN(C)C)c(=O)c2cc(F)c(N3CCN(C)CC3)cc21
→ -0.12	i
> CCOC(=O)C1=C(c2ccccc2)ON(C)C1c1ccccc1 (configuration not stated)
→ -1.15	i
> COc1ccc(/C=N/NC(=O)c2cc3c(OC)ccc(OC)c3[nH]2)cc1O
→ -0.98	i
> C=CCc1ccc(OCC(O)CN2CCCCC2C)c(OC)c1 (configuration not stated)
→ -1.54	i
> Clc1ccc(CSc2snnc2-c2ccccc2)cc1
→ 0.41	i
> Cn1ncc(C#N)c1NC(=O)c1nn2cccnc2c1Cl
→ -1.98	i
> Cc1cc(C)c(S(=O)(=O)N2CCN(C(=O)N3CCCCC3)CC2)c(C)c1
→ -0.93	i
> CCC(C)(C(=O)NC1CCCCC1)N(C)C(=O)c1ccccn1 (configuration not stated)
→ -0.17	i
> COc1ccc(OC)c(CN2CCN(C(=O)c3cc(S(=O)(=O)Nc4ccccc4OC)ccc3C)CC2)c1
→ 1.2	i
> Cc1ccc(/C=N/n2cc(-c3ccccc3)[nH]c2=S)s1
→ 0.66	i
> FC(F)(F)c1ccc(NCCc2ccccc2)nc1
→ 1.02	i
> CCOc1ccc(N2C(=O)/C(=C\c3ccc(OC)c(O)c3)S(=O)(=O)C2c2cccc([N+](=O)[O-])c2)cc1 (configuration not stated)
→ 0.1	i
> O=C(NC1CCCCC1)C(c1ccc2ncccc2c1)N(Cc1ccccc1)C(=O)c1ccc2c(c1)OCCO2 (configuration not stated)
→ -0.04	i
> O=C(CSc1nc2ccccc2c(=O)n1-c1ccccc1)NCc1ccc2c(c1)OCO2
→ 0.24	i
> CC(C)(C)CC(C)(C)NC(=O)/C=C/C(=O)O
→ -0.22	i
> O=C(O)CC(CC(=O)Nc1ccc2ccccc2n1)c1ccccc1 (configuration not stated)
→ -0.03	i
> COC(=O)c1ccc(NC(=O)CN(Cc2ccc(Cl)cc2)S(C)(=O)=O)cc1
→ 0.99	i
> CC(C)(C)NC(=O)CN(C(=O)CN1C(=O)C(=O)c2ccccc21)C(C)(C)C
→ -0.02	i

Screens (PubChem)
